KCNQ2 pot = potentiators of rat KCNQ2 potassium channel; 310,000 tested, 0.54% active; CHO-K1 KCNQ2, FluxOR thallium flux fluorescence; stronger effect = higher value; AID 2239; B-score at 10 µM;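 active means fluorescence ratio B-score at least 3 SD of library B-scores, with initial fluorescence B-score within 3 SD, cut at about 5.3 in these data; same plate scores as AID 2156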;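 further: B-score of peak minus minimum over baseline fluorescence ratio after K+ and Tl+ stimulus; positive B-score means potentiation of KCNQ2 with more thallium influx and brighter signal; only the inactives scoring about 0 or higher are listed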
Target sequence (O88943 whole entry, looked up): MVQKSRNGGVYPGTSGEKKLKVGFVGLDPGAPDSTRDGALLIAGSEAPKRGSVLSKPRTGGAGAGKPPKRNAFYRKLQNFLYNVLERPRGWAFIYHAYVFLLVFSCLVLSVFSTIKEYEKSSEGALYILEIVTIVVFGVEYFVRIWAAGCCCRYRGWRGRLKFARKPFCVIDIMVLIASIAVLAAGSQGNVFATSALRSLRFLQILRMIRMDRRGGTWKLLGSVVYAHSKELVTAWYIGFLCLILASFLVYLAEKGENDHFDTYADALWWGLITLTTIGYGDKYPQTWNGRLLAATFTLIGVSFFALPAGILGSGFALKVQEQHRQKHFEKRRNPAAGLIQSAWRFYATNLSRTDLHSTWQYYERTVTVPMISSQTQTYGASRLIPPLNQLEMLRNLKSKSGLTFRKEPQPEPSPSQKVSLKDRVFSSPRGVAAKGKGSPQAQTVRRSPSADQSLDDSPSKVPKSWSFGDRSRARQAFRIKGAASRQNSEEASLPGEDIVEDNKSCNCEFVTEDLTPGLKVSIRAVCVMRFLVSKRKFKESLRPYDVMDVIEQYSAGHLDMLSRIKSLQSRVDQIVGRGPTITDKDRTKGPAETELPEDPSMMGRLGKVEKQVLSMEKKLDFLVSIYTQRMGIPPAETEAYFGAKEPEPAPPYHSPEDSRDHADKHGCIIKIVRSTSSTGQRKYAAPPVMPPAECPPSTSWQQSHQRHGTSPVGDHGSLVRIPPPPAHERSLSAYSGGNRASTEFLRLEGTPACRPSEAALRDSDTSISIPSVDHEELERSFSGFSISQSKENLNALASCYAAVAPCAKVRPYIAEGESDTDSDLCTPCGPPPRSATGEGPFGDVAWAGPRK
KCNQ2 pot baseline = further read-out of KCNQ2 pot, marked with its call; B-score; compound at 10 µM; measured here: initial fluorescence intensity artifact check;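 brightness before thallium and not channel activity; 0 = typical well and far values either way flag optical interference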
An asterisk follows results filed as active. Some of the compounds tested, so the mix of outcomes need not match the whole.

What do the screens show for `COCCNC(=O)CSc1nnc(-c2ccccc2)c(-c2ccccc2)n1`?
KCNQ2 pot: 1.8; KCNQ2 pot baseline: -0.01

Results for S=C(NCC1CCCO1)N1CCN(Cc2ccccc2)CC1 (centres undefined) ?
KCNQ2 pot: 1.4; KCNQ2 pot baseline: 1

Results for CCCc1c(C(=O)OCC)[nH]c2c1C(=O)CCC2 ?
KCNQ2 pot: 3.2; KCNQ2 pot baseline: 0.43

What do the screens show for `O=C(Cc1ccsc1)NNC(=O)c1ccc(F)cc1`?
KCNQ2 pot: 1.7; KCNQ2 pot baseline: -0.59

What do the screens show for `CSCCC(NS(=O)(=O)c1cccs1)C(=O)NCc1cccs1` (centres undefined)?
KCNQ2 pot: 4.3; KCNQ2 pot baseline: -0.06

How did Cc1csc(=O)n1CC(=O)OCC(=O)c1ccc(Br)cc1 do in these assays?
KCNQ2 pot: 0.04; KCNQ2 pot baseline: -0.2

What do the screens show for `CCCc1nc(SCC(=O)N2CCC(C)CC2)c2c(=O)n(C)c(=O)n(C)c2n1`?
KCNQ2 pot: 25*; KCNQ2 pot baseline: -0.42*

How did O=C(CSc1nccn1Cc1ccccc1)Nc1nccs1 do in these assays?
KCNQ2 pot: 1.2; KCNQ2 pot baseline: -0.62

What do the screens show for `CCCCN(C(=O)CSCC(=O)Nc1ccc(OC)cc1)c1c(N)n(CCC)c(=O)[nH]c1=O`?
KCNQ2 pot: 0.5; KCNQ2 pot baseline: -0.01

How did Nn1c(SCc2cccc(C(F)(F)F)c2)nnc1-c1ccco1 do in these assays?
KCNQ2 pot: 0.83; KCNQ2 pot baseline: 0.05

How did COc1ccc(CCn2nnnc2C(C(C)C)N2CCC(C(N)=O)CC2)cc1OC (centres undefined) do in these assays?
KCNQ2 pot: 0.49; KCNQ2 pot baseline: 0

How did O=C(COc1ccc(S(=O)(=O)N2CCCCC2)cc1)N1CCOCC1 do in these assays?
KCNQ2 pot: 1.1; KCNQ2 pot baseline: 1.4

Results for CCOC(=O)/C(C#N)=C1/C=C(C)c2ccccc2N1 ?
KCNQ2 pot: 0.08; KCNQ2 pot baseline: 0.05

What do the screens show for `Cc1[nH]c2ccccc2c1/C=C(\C#N)S(=O)(=O)c1ccccc1`?
KCNQ2 pot: 0.63; KCNQ2 pot baseline: -0.26

Results for Cn1c(-c2ccccc2)cnc1SCC(=O)N1CCCCC1 ?
KCNQ2 pot: 0.45; KCNQ2 pot baseline: -0.5

What do the screens show for `COC(=O)C1(S(=O)(=O)c2cc(Br)cc3c2N(C(C)=O)CC3)CC1`?
KCNQ2 pot: 1.4; KCNQ2 pot baseline: -0.64

Results for Cc1cccc(N2CCN(C(=O)CCNS(=O)(=O)c3cccs3)CC2C)c1 (centres undefined) ?
KCNQ2 pot: 0.97; KCNQ2 pot baseline: 0.68

What do the screens show for `CN(C)S(=O)(=O)c1ccc(C(=O)NCCN2C(=O)S/C(=C\c3cccnc3)C2=O)cc1`?
KCNQ2 pot: 0.45; KCNQ2 pot baseline: -0.43

How did COc1ccc(N/C=C2\CCc3ccccc3C2=O)cc1 do in these assays?
KCNQ2 pot: 0.13; KCNQ2 pot baseline: -0.72

Results for CCC(c1nnc(SCC(=O)Nc2cccnc2Cl)n1-c1ccccc1)N(C)C (centres undefined) ?
KCNQ2 pot: 0.23; KCNQ2 pot baseline: -2.3

How did COc1ccc(C(=O)Cc2ccc3c(c2)OCO3)c(O)c1 do in these assays?
KCNQ2 pot: 0.49; KCNQ2 pot baseline: -1.1

What do the screens show for `COc1cccc(-n2c(=S)sc3c(=O)n(-c4ccccc4OC)c(=S)[nH]c32)c1`?
KCNQ2 pot: 0.01; KCNQ2 pot baseline: -1.5

How did O=C(O)CSc1nc2ccccc2[nH]1 do in these assays?
KCNQ2 pot: 0.01; KCNQ2 pot baseline: 1.7

What do the screens show for `CC(C)NS(=O)(=O)c1ccc(OCC(=O)NCc2ccc3c(c2)OCO3)c(Cl)c1`?
KCNQ2 pot: 0.17; KCNQ2 pot baseline: -0.01

Brought forward from above: 2 compounds, then new ones.
How did O=C(O)CSc1nc2ccccc2[nH]1 do in these assays?
KCNQ2 pot: 0.01; KCNQ2 pot baseline: 1.7

What do the screens show for `CC(C)NS(=O)(=O)c1ccc(OCC(=O)NCc2ccc3c(c2)OCO3)c(Cl)c1`?
KCNQ2 pot: 0.17; KCNQ2 pot baseline: -0.01

How did O=C(NN=C1CCCC1)c1ccc(O)cc1 do in these assays?
KCNQ2 pot: 2.9; KCNQ2 pot baseline: -2.9

What do the screens show for `O=C(N=NC(=O)c1ccc2c(O)n(C3CCCCC3)c(O)c2c1)c1cccnc1`?
KCNQ2 pot: 0.91; KCNQ2 pot baseline: -0.33

How did C=CCNS(=O)(=O)c1cc(S(=O)(=O)NCC=C)c(OC)cc1OC do in these assays?
KCNQ2 pot: 0.65; KCNQ2 pot baseline: -1.5

Results for COc1cc(NC(=O)c2ccc3c(SCC(=O)O)c4c(nc3c2)CCC4)cc(OC)c1OC ?
KCNQ2 pot: 0.03; KCNQ2 pot baseline: 0.57

How did CCCc1[nH]n(-c2nc3ccccc3s2)c(=O)c1C=NCCCOC do in these assays?
KCNQ2 pot: 1.6; KCNQ2 pot baseline: 2.5

How did O=C(O)CCN1C(=O)C2C3c4ccccc4C(c4ccccc43)C2C1=O (centres undefined) do in these assays?
KCNQ2 pot: 0.2; KCNQ2 pot baseline: -0.37

How did COc1ccc(N2CCN(c3ncnc4scc(-c5ccc(C)cc5)c34)CC2)cc1 do in these assays?
KCNQ2 pot: 3.5; KCNQ2 pot baseline: -0.54

What do the screens show for `O=S(=O)(/C=C/c1ccccc1)n1cnc2ccccc21`?
KCNQ2 pot: 2.1; KCNQ2 pot baseline: -0.52

How did COc1ccc(N(CC(=O)NC2CCCC2)C(=O)c2ccc(C)s2)cc1OC do in these assays?
KCNQ2 pot: 0.03; KCNQ2 pot baseline: 0.83

How did ClC1(CNc2ccccc2)CCN(Cc2ccccc2)CC1 do in these assays?
KCNQ2 pot: 0.79; KCNQ2 pot baseline: -0.77

How did COc1ccc(C(=O)NCc2nnc(SCC(=O)N3CCCCCC3)o2)cc1OC do in these assays?
KCNQ2 pot: 2.4; KCNQ2 pot baseline: 0.43

What do the screens show for `O=C(NCc1cccs1)C1CCCN(S(=O)(=O)c2cccc3cccnc23)C1` (centres undefined)?
KCNQ2 pot: 0.03; KCNQ2 pot baseline: -0.23

Fetched by structure from the list above:
What do the screens show for `CC(C)NS(=O)(=O)c1ccc(OCC(=O)NCc2ccc3c(c2)OCO3)c(Cl)c1`?
KCNQ2 pot: 0.17; KCNQ2 pot baseline: -0.01

What do the screens show for `COCCNC(=O)CSc1nnc(-c2ccccc2)c(-c2ccccc2)n1`?
KCNQ2 pot: 1.8; KCNQ2 pot baseline: -0.01

What do the screens show for `CSCCC(NS(=O)(=O)c1cccs1)C(=O)NCc1cccs1` (centres undefined)?
KCNQ2 pot: 4.3; KCNQ2 pot baseline: -0.06

What do the screens show for `CCCc1nc(SCC(=O)N2CCC(C)CC2)c2c(=O)n(C)c(=O)n(C)c2n1`?
KCNQ2 pot: 25*; KCNQ2 pot baseline: -0.42*

What do the screens show for `O=C(Cc1ccsc1)NNC(=O)c1ccc(F)cc1`?
KCNQ2 pot: 1.7; KCNQ2 pot baseline: -0.59

Results for Cn1c(-c2ccccc2)cnc1SCC(=O)N1CCCCC1 ?
KCNQ2 pot: 0.45; KCNQ2 pot baseline: -0.5

How did COc1ccc(N(CC(=O)NC2CCCC2)C(=O)c2ccc(C)s2)cc1OC do in these assays?
KCNQ2 pot: 0.03; KCNQ2 pot baseline: 0.83

Among those listed so far, these have a cyano group.
Results for CCOC(=O)/C(C#N)=C1/C=C(C)c2ccccc2N1 ?
KCNQ2 pot: 0.08; KCNQ2 pot baseline: 0.05

What do the screens show for `Cc1[nH]c2ccccc2c1/C=C(\C#N)S(=O)(=O)c1ccccc1`?
KCNQ2 pot: 0.63; KCNQ2 pot baseline: -0.26

Later entries:
Results for c1ccc(-c2nc(-c3cccnc3)n[nH]2)cc1 ?
KCNQ2 pot: 0.66; KCNQ2 pot baseline: 1.1

How did CN1CCN(CC(=O)N2c3ccc(S(=O)(=O)NCCNC(=O)OC(C)(C)C)cc3C(=O)Nc3cccnc32)CC1 do in these assays?
KCNQ2 pot: 0.25; KCNQ2 pot baseline: 0.77

How did COc1ccc(S(=O)(=O)N2CCC(O)(c3ccc4c(c3)OCO4)CC2)cc1 do in these assays?
KCNQ2 pot: 1.6; KCNQ2 pot baseline: 0.88

How did CCOC(=O)c1cn(CC(=O)Nc2ccccc2C(=O)OCC)nn1 do in these assays?
KCNQ2 pot: 1.5; KCNQ2 pot baseline: 0.05

Results for Cc1ccc(C(=O)N/C(=C/c2cccc([N+](=O)[O-])c2)C(=O)NC(C)C)cc1 ?
KCNQ2 pot: 1.6; KCNQ2 pot baseline: -2.1

How did O=C(O)c1nccnc1C(=O)NCCc1c[nH]c2ccccc12 do in these assays?
KCNQ2 pot: 2.2; KCNQ2 pot baseline: -0.68

How did CCCCCc1ccc(-c2ccc(OC)cc2)nc1 do in these assays?
KCNQ2 pot: 0.97; KCNQ2 pot baseline: 0.16

How did O=C(Cn1nnc(-c2cccs2)n1)NCc1cccs1 do in these assays?
KCNQ2 pot: 0.85; KCNQ2 pot baseline: 0.58

How did CC(c1nnc(SCC(=O)Nc2cccnc2Cl)n1-c1ccccc1)N(C)C (centres undefined) do in these assays?
KCNQ2 pot: 0.8; KCNQ2 pot baseline: 0.79

How did O=C(O)CN1C(=O)/C(=C\c2ccc(OC(=O)c3ccco3)cc2)SC1=S do in these assays?
KCNQ2 pot: 0.27; KCNQ2 pot baseline: 2.8

How did COc1ccccc1NC(=O)COc1cc(Br)c(CNCCCN2CCOCC2)cc1OC do in these assays?
KCNQ2 pot: 0.66; KCNQ2 pot baseline: -0.02

What do the screens show for `O=[N+]([O-])c1ccc(CNc2ccc(F)cc2)s1`?
KCNQ2 pot: 1.2; KCNQ2 pot baseline: -1.1

Results for Brc1ccc2[nH]c3c(c2c1)CCC3 ?
KCNQ2 pot: 0.26; KCNQ2 pot baseline: 0.02

What do the screens show for `Cc1ccc2nc(SC(C)C(=O)N3CCCCC3)[nH]c2c1` (centres undefined)?
KCNQ2 pot: 1.3; KCNQ2 pot baseline: 0.45

What do the screens show for `O=C(Nc1ccccc1Br)c1ccc2nccnc2c1`?
KCNQ2 pot: 1.2; KCNQ2 pot baseline: 0.92

What do the screens show for `CCOC(=O)CC(=O)CSc1ncc(C(=O)OCC)c(N)n1`?
KCNQ2 pot: 0.07; KCNQ2 pot baseline: -0.07

Results for Cn1ccnc1C(O)c1ccco1 (centres undefined) ?
KCNQ2 pot: 2.6; KCNQ2 pot baseline: -1.6

What do the screens show for `COc1ccccc1CC(=O)N1CCCC1`?
KCNQ2 pot: 0.19; KCNQ2 pot baseline: -0.83

Results for COC(=O)c1nn(-c2cccc(C(F)(F)F)c2)ccc1=O ?
KCNQ2 pot: 0.93; KCNQ2 pot baseline: 0.15

What do the screens show for `CS(=O)(=O)NCc1ccc(C(=O)NCc2ccccc2)cc1`?
KCNQ2 pot: 0.75; KCNQ2 pot baseline: -0.67

How did N#C/C(=N/Nc1ccccc1F)C(=N)N1CCOCC1 do in these assays?
KCNQ2 pot: 0.87; KCNQ2 pot baseline: 0.38

What do the screens show for `COCCNC(=O)CN(c1cc(Cl)ccc1OC)S(=O)(=O)c1ccc(C)c([N+](=O)[O-])c1`?
KCNQ2 pot: 0.94; KCNQ2 pot baseline: 0.35

How did COc1cccc(NC(=O)CN(C)C(=O)c2cc(S(=O)(=O)NCc3ccccc3)ccc2C)c1 do in these assays?
KCNQ2 pot: 0.17; KCNQ2 pot baseline: -0.88

How did Cc1cc(N/N=C/c2ccc(O)cc2)c2cccc(C)c2n1 do in these assays?
KCNQ2 pot: 1.1; KCNQ2 pot baseline: -1.9

What do the screens show for `CC(=O)Nc1cccc(Nc2nc(-c3cccs3)nc3ccccc23)c1`?
KCNQ2 pot: 2.6; KCNQ2 pot baseline: -1.3

What do the screens show for `CC1CCN(C(=O)c2ccc(S(=O)(=O)N3CCOCC3)cc2)CC1`?
KCNQ2 pot: 0.84; KCNQ2 pot baseline: 1.2

How did O=c1ccnc(Nc2ccc(Cl)cc2)[nH]1 do in these assays?
KCNQ2 pot: 0.6; KCNQ2 pot baseline: -0.01

How did O=C(CN1CCOCC1)OCCCc1ccccc1 do in these assays?
KCNQ2 pot: 0.53; KCNQ2 pot baseline: 2

How did COc1cc(CN2CCN(c3ncccn3)CC2)cc(OC)c1 do in these assays?
KCNQ2 pot: 2.5; KCNQ2 pot baseline: -0.02

What do the screens show for `Cc1[nH]c2ccccc2c1C(=O)C(C)OC(=O)C1CCC1` (centres undefined)?
KCNQ2 pot: 1.8; KCNQ2 pot baseline: -0.16

What do the screens show for `C(=N\n1cnnc1)/c1cccn1-c1ccccc1`?
KCNQ2 pot: 0.44; KCNQ2 pot baseline: -0.13

How did Cc1cc(/C=C/C(=O)O)c(C)n1-c1ccc(Cl)cc1 do in these assays?
KCNQ2 pot: 1.3; KCNQ2 pot baseline: 0.89

How did CN1CCN(C(=O)Nc2ccc([N+](=O)[O-])cc2)CC1 do in these assays?
KCNQ2 pot: 0.01; KCNQ2 pot baseline: -0.97

How did OCCCc1n[nH]c(=S)n1-c1ccccc1 do in these assays?
KCNQ2 pot: 0.77; KCNQ2 pot baseline: -0.07

What do the screens show for `Cc1ccccc1Nc1nc(N)nc(COC(=O)CC2CC3CCC2C3)n1` (centres undefined)?
KCNQ2 pot: 20*; KCNQ2 pot baseline: 1.2*

Results for CCOC(=O)c1c(SC)nc(SC)c2c1CCC2 ?
KCNQ2 pot: 0.97; KCNQ2 pot baseline: -0.16

What do the screens show for `COc1ccccc1C(=O)N1CCN(Cc2nc3cc([N+](=O)[O-])ccc3n2C)CC1`?
KCNQ2 pot: 0.14; KCNQ2 pot baseline: 0.77

Results for Cn1cc(Cl)c(-c2n[nH]c(=S)n2-c2ccccc2)n1 ?
KCNQ2 pot: 0.57; KCNQ2 pot baseline: 0.03

Results for COc1ccc(Cc2nnc(Cl)c3ccccc23)cc1OC ?
KCNQ2 pot: 0.19; KCNQ2 pot baseline: 0.09
